RecA splice inh – Mtb RecA intein splicing inhibitors, primary screen, biochemical, fluorescence, HTS | Protein RecA (Mycobacterium tuberculosis (strain ATCC 25618 / H37Rv)), P9WHJ3 | cell-free RecA intein splicing | inhibition, %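 (about 9 µM by stock and volumes)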 | actives 0.75% (n = 290,000); in the data active means inhibition above about 30%;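 further: 0% = vehicle wells and 100% = reference inhibitor control wells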
Target sequence (P9WHJ3 whole entry, looked up, canonical isoform): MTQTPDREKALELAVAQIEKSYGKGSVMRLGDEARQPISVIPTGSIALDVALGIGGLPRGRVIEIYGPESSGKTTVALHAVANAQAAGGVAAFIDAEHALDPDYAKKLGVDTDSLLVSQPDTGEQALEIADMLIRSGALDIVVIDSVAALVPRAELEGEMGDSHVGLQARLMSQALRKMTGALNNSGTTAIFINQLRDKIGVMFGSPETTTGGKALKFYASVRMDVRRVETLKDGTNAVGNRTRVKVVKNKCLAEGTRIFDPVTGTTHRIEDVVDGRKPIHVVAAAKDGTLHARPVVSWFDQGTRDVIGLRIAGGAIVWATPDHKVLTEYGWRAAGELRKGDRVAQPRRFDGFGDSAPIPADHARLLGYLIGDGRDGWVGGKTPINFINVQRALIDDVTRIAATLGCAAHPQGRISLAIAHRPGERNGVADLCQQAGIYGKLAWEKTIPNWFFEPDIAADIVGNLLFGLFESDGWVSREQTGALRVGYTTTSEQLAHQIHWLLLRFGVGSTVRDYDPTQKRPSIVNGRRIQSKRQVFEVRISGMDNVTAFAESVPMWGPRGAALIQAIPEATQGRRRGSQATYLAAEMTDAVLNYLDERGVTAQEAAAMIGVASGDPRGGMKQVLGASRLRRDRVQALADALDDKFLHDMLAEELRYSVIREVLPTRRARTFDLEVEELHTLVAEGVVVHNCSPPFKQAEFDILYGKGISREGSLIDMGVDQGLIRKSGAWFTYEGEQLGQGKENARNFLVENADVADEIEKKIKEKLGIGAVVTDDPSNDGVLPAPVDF
Mtb bLac sens – beta-lactam sensitization of Mtb H37Rv, H37Rv | actives 0.27% (n = 330,000) | inhibition, % at 25 µM | M. tuberculosis H37Rv growth with meropenem, percent inhibition; hits of this screen are not shown here;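 active means about 74% or more and at least 40 points above the plate without the antibiotic, then above 30% in a dose series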;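 further: growth measured after seven days incubation then overnight dye step; 0% = bacteria only wells and 100% = bacteria with antibiotic; twin plates without the antibiotic show which effects depend on it; some results filed as inactive read as strong as hits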
Arbovirus inh – antivirals against arbovirus infection, primary screen, cell-based, full library, 10K replicate subset; arbovirus infection cell-based antiviral screen; inhibition, % at 10 µM; actives 0.37% (n = 200,000);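 active means inhibition from about 30%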;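 further: bluetongue infection of BSR cells; cell survival read as ATP light after 72 h; 0% = infected wells without compound and 100% = uninfected wells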
YopH inh – YopH tyrosine phosphatase inhibitors, primary screen, biochemical, fluorescence Ex485/Em525; YopH tyrosine phosphatase [Yersinia enterocolitica]; inhibition, %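 (about 10 µM by stock and volumes)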; actives 0.16% (n = 140,000); AID 898, 2007;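 active means inhibition of 50% or more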;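 further: controls were vehicle for no effect and minimum signal wells for full effect; inactives centre near -20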
Mtb H37Rv – M. tuberculosis H37Rv growth inhibitors, H37Rv strain (AID 1626); inhibition, % at 10 µM, or IC50 in µM where a hit was titrated; M. tuberculosis H37Rv growth inhibition; higher % means a stronger effect; actives 0.95% (n = 220,000);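 active means confirmed in a dose series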;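 further: bacteria incubated seven days before Alamar blue readout; 0% = bacteria only wells and 100% = bacteria with antibiotic wells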
Arbovirus inh repeat – further read-out of Arbovirus inh, marked with its call; inhibition, %; measured here: 10K subset replicate screen; many hits read low in the repeat;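 first of two repeat runs on a subset; 0% = infected and 100% = uninfected wells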
Numbers without * were called inactive; . = no result given. These rows are one share of the data (hit frequency here may not be typical).

SMILES	RecA splice inh	Mtb bLac sens	Arbovirus inh	YopH inh	Mtb H37Rv	others
O=C(NC1CCCCCC1)c1ccc(=O)n(Cc2ccccc2)n1	1.8	1	11	.	0%
COc1ccc(N(C(=O)c2cccnc2)S(=O)(=O)c2cc(OC)ccc2OC)cc1	10	-4	.	.	.
CCCCn1nnc(NC(=O)c2ccc(-c3ccccc3)cc2)n1	-2.5	3	-23	-21	-5%
O=C1c2c([N+](=O)[O-])cc([N+](=O)[O-])cc2S(=O)N1Cc1ccccc1 (stereo unspecified)	-2.4	-3	3	.	-2%
CN(C)CCCOC(=O)c1cc2ccccc2o1	-0.1	4	13	-36	-4%
CCOc1ccccc1NC(=O)C1C2CCC3C(CCC21)C3(Cl)Cl (stereo unspecified)	13	0	-5	.	5%
CCOCCCN(C(=O)c1snc(C(N)=O)c1N)C(C(=O)NC1CCCC1)c1ccc(F)cc1 (stereo unspecified)	-2.0	-3	.	.	.
CCOC(=O)c1sc(=S)n(-c2ccccc2)c1C	0.5	-18	.	.	-6%
COCCn1c(=S)[nH]c2ncccc2c1=O	1.2	0	-1	-36	-7%
COc1ccccc1CNC(=O)C1CCCCN1S(=O)(=O)c1ccccc1 (stereo unspecified)	1.4	0	.	.	.
CCCCc1nnc(NC(=O)CSc2nc(O)c(-c3ccccc3)c(=O)[nH]2)s1	7.3	95	4	.	-1%
CN(CC(=O)Nc1ccc(F)cc1)C(=O)CSc1nccn1C	-1.9	2	.	.	.
COc1ccc(Oc2cccc(Cl)c2CNC(=O)c2ccccc2C(=O)O)cc1	3.1	1	.	.	-2%
COC(=O)CC1C(=O)NCCN1C(=S)Nc1cc(C)cc(C)c1 (stereo unspecified)	-0.8	1	20	-25	1%
CCN=c1scc(-c2ccco2)n1/N=C/c1ccc(O)cc1	9.3	14	-6	-10	-8%
O=C(O)c1ccc(Cl)c(S(=O)(=O)Nc2ccc(OCc3ccccc3)cc2)c1	0.3	-4	.	.	.
CC(C)CN(CC(C)C)C(=O)c1cc(S(=O)(=O)N2CCCCC2)c[nH]1	-0.6	4	.	.	.
COc1ccc(-n2nc(C(N)=O)c(O)cc2=O)cc1	-1.6	-2	11	.	-4%
Cc1ccc(N(Cc2cc3cccc(C)c3[nH]c2=O)S(=O)(=O)c2ccccc2)c(C)c1	0.8	17	.	.	.
Cc1cccc(OC2(c3ccccc3)OC(=O)c3ccccc32)c1C (stereo unspecified)	13	3	2	-35	1%
Cn1c(N)c(C(=O)COc2ccc(Cl)cc2Cl)c(=O)n(C)c1=O	3.1	-7	-11	.	-3%
COc1cccc(/C=N/NC(=O)c2ccoc2C)c1	0.6	-8	.	.	-10%
COc1cc(SC)ccc1C(=O)NNC(=O)c1cc(C)oc1C	1.3	-5	.	.	.
S=C(NCC1COc2ccccc2O1)Nc1ccc(Br)cc1 (stereo unspecified)	2.7	3	19	-3	68%

3 compounds drawn at random from those above:
SMILES	RecA splice inh	Mtb bLac sens	Arbovirus inh	YopH inh	Mtb H37Rv	others
Cn1c(N)c(C(=O)COc2ccc(Cl)cc2Cl)c(=O)n(C)c1=O	3.1	-7	-11	.	-3%
S=C(NCC1COc2ccccc2O1)Nc1ccc(Br)cc1 (stereo unspecified)	2.7	3	19	-3	68%
COc1ccc(-n2nc(C(N)=O)c(O)cc2=O)cc1	-1.6	-2	11	.	-4%

More results follow.
SMILES	RecA splice inh	Mtb bLac sens	Arbovirus inh	YopH inh	Mtb H37Rv	others
Nc1nc(SCC(=O)N2CCOCC2)[nH]c(=O)c1-c1ccccc1	-0.4	-8	5	.	0%
CN(CCc1nc2ccc(Cl)cc2[nH]1)Cc1nc(CC2CC2)no1	-2.0	-9	0	.	7%
CCN(C(=O)CSc1ncccc1C(=O)O)C1CCCCC1	1.5	-4	1	.	1%
CCOCCCNC(=O)C(NC(=O)Cc1c[nH]c2ccccc12)c1ccccc1 (stereo unspecified)	-0.2	-6	2	.	4%
COc1cc(OC)c(S(=O)(=O)N2CCCCC2)cc1S(=O)(=O)N1CCCCC1	-0.2	-12	-1	-8	-4%
Cc1nnc(NC(=O)Nc2ccc(Cl)c(Cl)c2)s1	-3.2	-1	17	-5	-6%
COc1cc(CCN2C(=O)N[C@@H](CCc3ccccc3)C(C(C)=O)=C2C)cc(OC)c1OC	.	-7	-2	-8	-7%
O=[N+]([O-])NC1=NCCN1Cc1ccc(Cl)nc1	0.5	-4	.	.	.
Cc1ccc(OC(C)C(=O)N(C)Cc2ccccc2)c([N+](=O)[O-])n1 (stereo unspecified)	0.0	0	.	.	.
COc1ccc(CN2CCN(Cc3ccc(C(F)(F)F)cc3)CC2)c(OC)c1	1.0	9	.	.	.
Cc1cc(/C=c2\sc3nc4ccccc4n3c2=O)c(C)n1-c1ccc(C(=O)O)cc1	2.5	.	37*	.	17%
O=C(COC(=O)Cn1nnc2ccccc21)NC1CCCC1	-0.1	-1	.	.	.

Arranged by SMILES length (rising): 3 of the compounds above
SMILES	RecA splice inh	Mtb bLac sens	Arbovirus inh	YopH inh	Mtb H37Rv	others
Cc1nnc(NC(=O)Nc2ccc(Cl)c(Cl)c2)s1	-3.2	-1	17	-5	-6%
CN(CCc1nc2ccc(Cl)cc2[nH]1)Cc1nc(CC2CC2)no1	-2.0	-9	0	.	7%
Cc1cc(/C=c2\sc3nc4ccccc4n3c2=O)c(C)n1-c1ccc(C(=O)O)cc1	2.5	.	37*	.	17%

(list continues)
SMILES	RecA splice inh	Mtb bLac sens	Arbovirus inh	YopH inh	Mtb H37Rv	others
C(=N\Nc1ccc2nncn2n1)/c1ccccn1	-0.6	-2	.	.	1%
COC(=O)Cn1nnc(N2CCOCC2)n1	1.5	1	.	.	-12%
O=C(COc1ccc(C(=S)N2CCOCC2)cc1Cl)Nc1ccccc1Cl	2.1	4	-20	.	-4%
COc1ccc(CN2C(=NC(=O)CCc3ccccc3)SC3CS(=O)(=O)CC32)cc1 (stereo unspecified)	-0.6	2	.	.	.
Cc1oc(-c2ccccc2F)nc1CN1CCC(C(=O)NCc2ccco2)CC1	1.0	-16	4	-27	-16%
Cc1ccc(S(=O)(=O)N2CCN(CC(=O)N/N=C\c3ccncc3)CC2)cc1	1.5	-2	.	.	-8%
S=c1[nH]nc(-c2ccncc2)n1/N=C/c1ccccc1	2.7	-5	0	-9	-3%
Cc1ccc(NC(=O)c2ccc3nccnc3c2)c(C)c1	11	-6	.	.	.
CCOC(=O)C1CCN(C(=O)c2ccccc2Oc2ccccc2)CC1	1.3	6	1	-26	1%
Cc1oc2cc(OCc3cnn(-c4ccccc4)c3)ccc2c(=O)c1Oc1ccccc1F	-3.5	9	-11	-25	4%
CN1C(=O)C(C(=O)NC(C)(C)C)C2c3ccccc3OC13CCCCC23 (stereo unspecified)	6.3	2	0	-39	-20%
Cc1cc(CN(C)C(=O)CCc2nnc(Cc3cccc(C(F)(F)F)c3)o2)on1	2.5	4	8	.	4%
COc1ccc(NC(=O)N2c3ccccc3CC2C)cc1OC (stereo unspecified)	3.6	-7	2	12	0%
Cc1cccc(C)c1NC(=S)N(Cc1cccs1)C1CCCC1	3.6	3	2	.	4%
Cc1cnc(C(=O)OCC(=O)c2ccc(Cl)cc2)cn1	-1.2	-17	.	.	.
O=C(OCc1cnc(Cl)s1)c1ccc(Cl)cc1	-3.4	3	0	-25	-1%
CSc1cccc(NC(=O)NCc2cccc(CNC(=O)Nc3cccc(SC)c3)c2)c1	2.3	0	.	.	7%
COc1ccc(NC(=O)c2sc3nc(C)nc(N4CCN(c5ccccn5)CC4)c3c2C)cc1Cl	1.0	9	.	.	.
O=C(O)CCCC(=O)Nc1ccc(N2CCCC2)cc1	-4.8	-10	8	-26	-4%
CC(=O)c1cnc2c(-c3ccccc3)c(-c3ccccc3)nn2c1C	-2.0	5	.	.	.
O=c1[nH]n(-c2ccccn2)c(=O)c2ccccc12	1.3	1	-2	-35	0%
CC1CCc2[nH]c3ccc(C(=O)NCCCOC(C)C)cc3c2C1 (stereo unspecified)	-3.0	0	-12	.	1%
COc1ccc(OC)c(NS(=O)(=O)c2ccc3c(c2)n(C)c(=O)n3C)c1	-0.7	-4	1	19	-9%
Cc1cc2ccccc2c(=O)n1CC(=O)NCC(=O)N1CCCC(C)C1 (stereo unspecified)	-3.5	-2	6	-1	-9%
CC1CCc2sc(C(=O)N3CCN(c4ncccn4)CC3)cc2C1 (stereo unspecified)	1.0	0	.	.	.
Cc1ccc(CNC(=O)CNS(=O)(=O)c2ccc(Br)s2)cc1	-3.1	2	.	.	.
Cc1ccc(C)c(S(=O)(=O)N(C)C2CCS(=O)(=O)C2)c1 (stereo unspecified)	-2.0	0	.	.	.
Cc1cc(NC(=O)c2ocnc2C)no1	2.0	-18	7	-51	-5%
CCOc1ccc(C(=O)CN2C(=O)NC3(CCCCCC3)C2=O)cc1	-0.5	-12	.	.	.
CO/N=C/NC(=O)c1cn(-c2ccc(F)cc2)c(=O)c2ccccc12	-1.1	12	7	-26	-9%
Cc1ccc(NC(=O)CCNS(=O)(=O)c2cc(Br)cnc2N)cc1Cl	0.8	-13	-2	-6	0%
CC(C)(C)c1ccc(Oc2coc3cc(OCC(=O)O)ccc3c2=O)cc1	-0.5	-4	.	.	.
Cc1ccccc1OCC(O)Cn1c(N2CCN(c3ccccc3)CC2)nc2c1c(=O)[nH]c(=O)n2C (stereo unspecified)	-1.3	4	8	-2	3%
Cc1ccc(S(=O)(=O)N2CCC(C(=O)NCCCN3CCCCCC3)CC2)cc1	.	-2	0	-36	8%
CN(C)c1ccc(CNCCC2(O)CCOC(C)(C)C2)cc1 (stereo unspecified)	.	-2	9	-22	-20%
O=C(Nc1cccnc1)c1noc2c1CCCC2	-0.6	10	-1	-23	2%
Cc1ccc2nc(/C(C#N)=C\c3ccc(N4CCCCC4)c([N+](=O)[O-])c3)[nH]c2c1	3.8	11	-22	-17	5%
CCOc1ccc(C(C(=O)NCC2CCCO2)N(Cc2ccccc2)C(=O)c2snc(C(N)=O)c2N)cc1 (stereo unspecified)	-1.3	0	.	.	.
O=C(NCCCN1CCOCC1)c1ccc2c(c1)N(Cc1ccccc1)C(=O)c1ccccc1S2=O (stereo unspecified)	1.6	-9	.	.	.
N#C/C(=C\c1ccc(F)cc1F)S(=O)(=O)c1ccccn1	-2.1	-4	.	.	-1%
CCOc1cc(CN2CCCC(C(=O)c3cccc(C(F)(F)F)c3)C2)ccc1O (stereo unspecified)	-4.1	-11	13	.	-8%
O=S(=O)(NC1CCCC1)c1ccccc1Br	0.6	2	.	.	1%
O=C(c1cc2ccccc2o1)N1CCCCCC1	-0.3	10	-1	-19	9%
COc1ccc(OC)c(NC(=O)NC2(C(F)(F)F)Oc3ccccc3O2)c1	-0.2	-9	-4	-25	-6%	Arbovirus inh repeat=-5
COc1ccc(/C=N\NS(=O)(=O)c2ccc(Cl)cc2)cc1COc1ccccc1[N+](=O)[O-]	-0.7	3	8	-26	.
COc1ccccc1NC(=O)CC12CC3CC(CC(Br)(C3)C1)C2	0.4	5	.	.	.
COc1ccccc1NC(=O)COc1cccc(-n2cnnn2)c1	.	-16	-7	-24	-1%
Cn1c(NCc2ccccc2)cc(=O)n(C)c1=O	-2.8	3	-9	-1	-2%
CCN(C(=O)COC(=O)c1cnc(C)cn1)C1CCS(=O)(=O)C1 (stereo unspecified)	0.8	-9	.	.	.
COC(C(=O)NNS(=O)(=O)c1ccc([N+](=O)[O-])cc1)c1ccccc1 (stereo unspecified)	-3.2	0	.	.	.
COc1ccc(/C=C(/NC(=O)c2ccco2)C(=O)NCCc2ccccc2)cc1	2.7	-8	.	.	.
COc1c(Cl)cc(Cl)cc1C(=O)Nc1ccc(NC(C)=O)cc1	0.7	-1	-19	.	0%
Cc1cc(C)c2c(CC(=O)Nc3ccc(Cl)cn3)coc2c1	0.8	-4	-3	-11	7%
Cc1cccc(COC(=O)Nc2ccc(NC(=O)c3ccccc3Cl)cc2)c1	-0.9	-3	.	.	.
C=CCSc1nnc(COc2ccc(=O)n(-c3ccccc3)n2)n1CC	-0.8	-9	12	.	3%
Cc1ccccc1-c1nc(-c2ccccn2)no1	0.4	3	-8	.	1%
Cc1nnc(SCC2=C(C(=O)O)N3C(=O)C(NC(=O)C(C)n4nc(C(F)(F)F)cc4C)C3SC2)s1 (stereo unspecified)	-1.2	73	2	.	-14%
COc1ccc(NS(=O)(=O)c2csc(C(N)=O)c2)cc1OC	0.4	2	.	.	.
COc1ccc(N(CC(=O)N2CCN(c3ccc(Cl)cc3)CC2)S(=O)(=O)c2c(C)n[nH]c2C)cc1	.	-1	13	.	-1%
COCCN(C(=O)Cn1nnc2ccccc21)C(C(=O)NC1CCCC1)c1cc(OC)ccc1OC (stereo unspecified)	0.6	-8	4	-26	-10%
CCOc1ccccc1NC(=O)N1CCCC(c2nc3c(nnn3Cc3ccc(C)cc3)c(=O)[nH]2)C1 (stereo unspecified)	0.5	59	-37	-37	4%

Bioassay records as filed in PubChem BioAssay.
